# High-throughput results from PubChem BioAssay.
# Six1-Eya2 inh = Six1/Eya2 interaction inhibition | Q15475+O00167 | AlphaScreen GST-Six1/His-Eya2 binding, biochemical; active compounds read low; control for the full effect not named in the record | activity change, % (no concentration beside the values) | 360,000 tested, 0.56% active; in the data active = activity change below about -65%; inconclusive = about -30% to -65%; inactive = above about -30%; further: on the % scale 0 is the no-effect control and ±100 the full control effect
#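 AlphaScreen with GST-Six1 and His-Eya2 (5X mix: 250 nM and 500 nM), glutathione donor and nickel acceptor beads; buffer 50 mM Tris pH 8.0, 300 mM NaCl, 1 mM TCEP; 1 h at 37 C in the dark.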
# D2 agonist = activates the human D2 dopamine receptor | DiscoveRx PathHunter D2 beta-arrestin, luminescence, 90 min; 100% = 57 uM dopamine signal | activation, % (test concentration not listed) | P14416 | AID 624465 | 360,000 tested, 0.084% active; in the data active = activation above about 40%; inconclusive = about 15% to 40%; inactive = below about 15%; further: compound concentration not given in the record; the text of the record calls up to 30% inactive
# Target sequence (P14416 whole entry, looked up): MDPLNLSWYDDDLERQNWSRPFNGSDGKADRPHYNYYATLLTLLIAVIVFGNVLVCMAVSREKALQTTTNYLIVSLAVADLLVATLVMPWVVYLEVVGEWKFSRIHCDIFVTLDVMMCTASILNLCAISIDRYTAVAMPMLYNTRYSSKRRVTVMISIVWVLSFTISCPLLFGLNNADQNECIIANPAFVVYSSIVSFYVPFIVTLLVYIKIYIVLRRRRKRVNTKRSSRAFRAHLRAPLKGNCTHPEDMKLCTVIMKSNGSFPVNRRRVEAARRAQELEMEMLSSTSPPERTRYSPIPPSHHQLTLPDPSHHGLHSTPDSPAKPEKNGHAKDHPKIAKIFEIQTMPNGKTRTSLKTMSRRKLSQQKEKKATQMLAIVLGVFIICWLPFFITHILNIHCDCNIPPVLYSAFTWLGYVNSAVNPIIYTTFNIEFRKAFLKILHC
#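 Agonist mode: compounds alone added to overnight-plated D2 PathHunter cells for 90 min at 37 C, with 57 uM final dopamine (EC100) defining full response. Beta-arrestin recruitment detected by chemiluminescent reagent, read after 1 h at ambient temperature.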
# D2 potentiator = potentiates the human D2 dopamine receptor allosterically | P14416 | DiscoveRx D2 beta-arrestin cells, luminescence, 90 min; 100% = 57 uM dopamine signal | potentiation, % (concentration not given with the values) | 360,000 tested, 0.23% active | AID 624464; active = potentiation of 50% or more; inconclusive = 30% to 50%; inactive = 30% or less;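 further: compound concentration not given in the record; tested on top of an EC20 dose of dopamine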
#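 D2 cells co-treated with compound plus 50 nM dopamine (EC20) for 90 min at 37 deg C to detect potentiation. Beta-arrestin recruitment was read as enzyme-fragment luminescence after 1 h at ambient temperature. Full response was set by 57 uM dopamine.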
# TRPML1 ag = activates the human TRPML1 channel | 410,000 tested, 0.12% active | TRPML1-expressing cells, Ca2+ dye fluorescence, FDSS; host cell line not named in the record; reference of the full effect not given here | activation, % (no concentration beside the values) | Q9GZU1; in the data active = activation above about 50%; inconclusive = about 30% to 50%; inactive = below about 30%; further: 0% is about no effect; the text of the record puts the active cut at 80%
# Target sequence (Q9GZU1 whole entry, looked up): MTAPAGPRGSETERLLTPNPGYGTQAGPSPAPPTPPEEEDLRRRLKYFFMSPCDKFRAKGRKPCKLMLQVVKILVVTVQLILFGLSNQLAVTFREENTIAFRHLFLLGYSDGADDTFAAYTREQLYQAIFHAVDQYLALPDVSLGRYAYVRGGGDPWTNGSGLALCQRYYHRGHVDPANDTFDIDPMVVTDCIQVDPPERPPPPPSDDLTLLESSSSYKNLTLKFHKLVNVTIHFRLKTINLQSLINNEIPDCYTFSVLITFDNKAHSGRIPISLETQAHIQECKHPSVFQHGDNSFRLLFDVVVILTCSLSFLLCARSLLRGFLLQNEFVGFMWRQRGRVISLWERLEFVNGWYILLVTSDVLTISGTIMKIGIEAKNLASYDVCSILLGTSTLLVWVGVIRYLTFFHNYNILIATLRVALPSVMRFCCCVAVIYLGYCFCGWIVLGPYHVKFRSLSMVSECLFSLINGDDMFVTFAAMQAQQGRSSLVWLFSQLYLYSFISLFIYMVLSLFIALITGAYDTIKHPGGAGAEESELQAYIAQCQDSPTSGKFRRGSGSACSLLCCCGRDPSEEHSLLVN
#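 Tet-induced TRPML1-DL cells, 1,500 per well, cultured overnight, were loaded with a no-wash Ca2+ dye for 45–90 min. Calcium fluorescence was recorded on the FDSS for 110 s after compound addition, before the EC80 agonist (4 uM 54-4) was added.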
# PINK1 modulator = PINK1 expression modulation; PINK1 immunofluorescence, high-content cytometry, 24 h; Potency, µM (titrated, usually from 76.6 µM), for the others: at the highest dose activation (PINK1 increase), usual class: activators; 410,000 tested, 0.2% active; AID 624263; active = well fitted activation curve with a large enough effect; inconclusive = small, poorly fitted or top-dose-only effect; inactive = flat fitted curve, though single readings scatter; cell line not stated here;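 further: potency means the concentration at half of the fitted maximal effect; % of control where 0% means no effect; nearly all actives have a fitted effect of over 65% in size; a mitochondrial uncoupler was the plate control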
#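 Stable cell line treated 24 h with compounds at 5 concentrations (CCCP controls), then fixed and immunostained for PINK1 plus nuclear and cell stains; PINK1 immunofluorescence quantified by laser-scanning microplate cytometry.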
# TRPML1 inh = inhibitors of human TRPML1 channel; activity change, negative = inhibition, % (test concentration not listed); Q9GZU1; TRPML1-inducible cells, Ca2+ dye fluorescence, FDSS; active compounds read low; inhibition of EC80 agonist-evoked calcium signal; 390,000 tested, 0.02% active; in the data active means activity change below about -50%; inconclusive means about -30% to -50%; inactive means above about -30%;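 further: stimulus is agonist 54-4 at its EC80 concentration; on the % scale 0 is the no-effect control and ±100 the full control effect; compound concentration not given in the record; the text of the record puts the active cut at -80%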
#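 Tet-induced TRPML1-DL cells loaded with Ca8 no-wash calcium dye were read kinetically on FDSS. Compound addition was followed by EC80 agonist 54-4 (4 uM final); inhibition was read over 110 s.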
# * = called active by the depositor; ? = inconclusive; . = not tested or not shown; & = joins results of further samples; [ ] = another dose, or the depositor's remark. Compounds were not picked by outcome (roughly 1% active in at least one column).
compound,Six1-Eya2 inh,D2 agonist,D2 potentiator,TRPML1 ag,PINK1 modulator,TRPML1 inh
COc1ccc(C2=NOC(COc3ccc([N+](=O)[O-])cc3)C2)cc1 (stereo unspecified),-7.0,-2.7,-9.1,2.0,1.0%,14.2
O=C(/C=C/c1ccc([N+](=O)[O-])cc1)c1ccco1,4.0,-2.4,-2.6,0.3,0.8%,18.4
O=C(Nc1ncccn1)c1ccc([N+](=O)[O-])o1,-2.5,?,10.0,-0.6,5.2%,-16.3
Cc1ccc(-n2ncc3c(NCCO)ncnc32)cc1Cl,.,.,.,-1.2,-0.3%,-21.3
C/C(=N\NC(=O)c1ccccc1O)c1ccc(Br)s1,-12.2,-5.0,-15.4,0.8,1.2%,27.5
O=C(COC(=O)C1=COCCO1)Nc1ccc(F)cc1,5.1,-5.8,-3.2,-0.3,2.5%,-1.7
CN(C)C(/C=C/Nc1ccc(F)cc1)=C(C#N)C#N,8.4,-1.2,-12.6,-0.3,.,-9.4
COc1ccc(C)c2sc(N3CCN(C(=O)c4ccco4)CC3)nc12,.,.,.,2.2,-1.2%,33.9
C[C@@H]1CN([C@@H](C)CO)C(=O)CCCn2cc(nn2)CO[C@H]1CN(C)S(=O)(=O)c1ccc(Cl)cc1,16.2,-1.0,-3.5,1.1,1.5%,-13.0
C/C(=N\NC(=O)c1cc(-c2ccc(Br)s2)[nH]n1)c1ccncc1,-16.5,3.1,-5.6,0.3,0.5%,9.4
CNC(=S)N1CCn2cccc2C1c1cc(OC)c(OC)c(OC)c1 (stereo unspecified),10.9,-4.2,1.1,-1.0,1.6%,-10.5
Cc1ccc(S(=O)(=O)Nc2nc(N)n(-c3ccccc3)n2)cc1,6.2,-7.1,-0.7,-0.7,1.9%,-10.4
COc1ccccc1OCCNC(=O)c1cccc(S(=O)(=O)NCc2ccccc2)c1,-9.6,-6.7,0.4,0.3,1.8%,-18.7
Cc1cc(Oc2ccccc2)nc(N2CCOCC2)n1,16.1,0.4,-3.4,0.5,0.4%,2.1
Cc1c(Nc2cc(Cl)c3nonc3c2[N+](=O)[O-])c(=O)n(-c2ccccc2)n1C,-88.5*,-9.1,-28.9,4.8,-1.1%,1.3
COCCn1c(SCC(=O)Nc2ccc(NC(C)=O)cc2)nc2c([nH]c3ccccc32)c1=O,-3.8,-2.0,3.3,0.3,2.7%,21.6
Cc1ccc(N2C(=O)N(CC(=O)NC(c3ccccc3)c3ccccc3)C(=O)C2C)cc1 (stereo unspecified),-12.4,-0.1,-15.4,2.7,-1.4%,11.4
O=C(/C=C/c1ccccc1Cl)OCC(=O)c1ccc[nH]1,-1.5,-6.6,-2.2,-0.2,-2.0%,-19.7
COc1ccc(/C=C/C(=O)N(C)C2CCCCC2)cc1Br,1.9,-4.3,1.0,0.5,0.7%,2.0
Cc1oc2cc(Br)c(O)c(Br)c2c1-c1ccccc1,23.9,1.7,0.1,-0.2,4.7%,-4.7
CCOC(=O)c1sc(C(=O)OCC)c(OCCO)c1OCCO,7.2,-1.3,5.3,-0.3,-7.9%[38.3 µM],7.7
O=[N+]([O-])c1cc2c(c3cccnc13)COCO2,?,4.7,3.1,-0.1,1.0%,23.8
CCOC(=O)CSC1=C(C#N)C(=O)NC2(CCCCC2)S1,4.4,-1.7,-11.7,-0.4,0.9%,60.8
O=C(CCc1nnc(CCC2CCCCC2)o1)NCCc1ccccn1,0.6,-3.2,-2.4,-0.2,1.3%,-7.7
NC(=O)c1cccc(-c2ccnc3c2CC(C(=O)NCc2ccco2)O3)c1 (stereo unspecified),-5.6,-3.9,0.4,-0.7,10.8%,.
COc1ccc(NC(=O)C2=CN3CCS(=O)(=O)N=C3C=C2)c(OC)c1,0.7,4.6,2.2,0.1,3.3%,-1.7
Nc1c(-c2nc(-c3cccs3)no2)nnn1-c1cccc(F)c1,.,.,.,0.3,0.6%,-18.1
CCOc1ccc2c(c1)C(=O)c1cc(OCC(=O)O)ccc1-2,15.0,-0.3,-6.1,0.1,0.1%,-2.5
Cc1ccc(C(=O)C(=O)c2ccc(C)c(N)c2)cc1N,-1.0,-6.4,-7.1,2.5,0.0%,56.8
C#CCN(C[C@H]1[C@H](OC(=O)NC2CCCC2)[C@H](OC(=O)NC2CCCC2)C[C@@H](C(=O)OC)[C@H]1C(=O)OC)S(=O)(=O)c1ccc(C)cc1,-2.6,-8.3,-3.6,-0.2,4.7%,57.9

# Copied from the list:
# C/C(=N\NC(=O)c1ccccc1O)c1ccc(Br)s1 in PINK1 modulator: 1.2%
# Cc1ccc(C(=O)C(=O)c2ccc(C)c(N)c2)cc1N in TRPML1 inh: 56.8
# Cc1oc2cc(Br)c(O)c(Br)c2c1-c1ccccc1 in TRPML1 inh: -4.7

# Next section.
compound,Six1-Eya2 inh,D2 agonist,D2 potentiator,TRPML1 ag,PINK1 modulator,TRPML1 inh
COc1ccc([N+](=O)[O-])c(S(=O)(=O)c2ccc(Cl)cc2)n1,-5.3,-8.5,-20.3,1.6,-1.5%,-0.1
CCOC(=O)N1CCN(c2nc(-c3ccccc3)c3ccccc3n2)CC1,19.3,-2.1,12.8,2.7,14.5%,25.5
Cc1ccc(N2CCN(C(=O)CCc3c(C)nc4c(c3C)c(=O)n(C)c(=O)n4C)CC2)c(C)c1,.,.,.,-0.9,1.3%,13.5
Cc1ccc(CNC(=O)c2ccc(Cl)cc2[N+](=O)[O-])cc1,-1.8,-1.0,-7.7,-0.7,2.4%[38.3 µM],5.6
CCN(C(=O)CSc1nnc(-c2cccs2)o1)C1CCS(=O)(=O)C1 (stereo unspecified),5.1,1.8,-3.4,0.8,0.6%,-26.2
Cc1cccc(C)c1NC(=O)C/C(N)=N/O,4.0,0.1,1.5,-0.9,-2.0%,-9.3
CC(NC(=O)Cn1ncc2c3ccccc3n(Cc3ccc(F)cc3)c2c1=O)c1ccccc1 (stereo unspecified),.,.,.,-0.4,-0.8%,13.6
CCCC[C@@H]1CN=C(N)N1CCCC,-5.6,-2.3,-6.7,0.5,3.2%,-4.4
CCN(CC)c1ccc(C(=O)N2CCC(c3c[nH]c4ccccc34)(c3c[nH]c4ccccc34)CC2)cc1,.,.,.,-0.5,0.4%,-3.5
O=C(CN(CC1CCCO1)C(=O)CNS(=O)(=O)c1ccc(Cl)cc1)NC1CCCCC1 (stereo unspecified),-18.4,-6.9,-7.9,-1.2,2.2%,-5.2
CCCCN1C(=O)N(C)C2NC(=O)NC21 (stereo unspecified),5.0,1.5,-21.9,0.4,-0.4%,4.5
COc1ccc(-c2cn(-c3ccccc3)nc2CO)cc1,-4.2,-0.7,-2.7,2.6,1.3%,41.6
Cc1nc(SCC(=O)Nc2nccs2)c(C#N)c(C)c1C,-0.6,0.4,-6.7,0.2,7.1%,48.9
Cc1ccccc1/C=C\c1nc(O)c([N+](=O)[O-])c(=O)[nH]1,-1.8,-2.3,-7.8,-0.2,0.9%,-1.7
CCN1CCC(C(=O)NC(c2ccc(F)cc2)c2ncccc2C)CC1 (stereo unspecified),10.5,-7.7,-11.5,-0.1,0.4%,.
C/C(=N\NC(=O)c1nnn(-c2nonc2N)c1C)c1ccc(OCc2ccccc2)cc1,9.7,-2.2,-4.7,0.4,1.5%,2.2
CCN1CCN(CCNC(=O)CCCn2nc(C)c3c(C)n(-c4ccc(C)cc4)nc3c2=O)CC1,-9.3,-1.9,-10.5,-0.5,2.1%,7.4
CCc1cccc(C)c1NC(=O)CCNC(=O)c1cccc(C)c1,3.1,1.6,-6.4,-0.1,0.6%,-4.2
O=C(NCc1ccccc1)C1CCN(S(=O)(=O)c2ccc3[nH]c(=O)ccc3c2)CC1,.,.,.,0.7,-4.3%,-9.6
Cc1ccc(OCC(=O)NCC(c2ccc(Cl)cc2)N2CCCCC2)cc1 (stereo unspecified),.,.,.,0.7,5.0%,19.5
CCCNC(=O)Cn1c(=O)/c(=C/c2ccc(-c3cccc([N+](=O)[O-])c3)o2)s/c1=C\C(=O)C(C)(C)C,-1.9,-0.8,10.0,0.5,?,-3.7
CCN(CC)CCC(c1cc(OC)c(OC)c(OC)c1)c1c(OC)cc(OC)c2ccc(=O)oc12 (stereo unspecified),-20.4,-0.7,-15.8,-0.2&0.7,-0.3%,15.2&-5.6
COc1ccc([C@H]2C[C@@H](O)[C@H](n3cc(-c4ccc(F)cc4)nn3)CN2CC2CCCCC2)cc1,3.1,-10.0,-2.7,0.3,0.8%,2.6
CCOC(=O)COc1ccc(S(=O)(=O)NC2CC2)cc1,0.7,2.0,2.3,-0.6,-1.9%,-1.2
COc1cccc2sc3cc(NCc4ccc5c(c4)OCO5)ccc3c(=O)c12,-3.9,2.1,-16.1,1.2,-1.9%,-2.8
COc1cc(/C=C/C(=O)OCC(=O)N2CCCCCC2)cc(OC)c1OC,-2.1,-3.3,-10.7,-0.9,0.5%,10.1
O=C(c1cccc(S(=O)(=O)Nc2ccc(F)cc2)c1)N1CCCC1,-4.3,-0.8,-8.2,-1.4,-0.4%,-6.4
Cc1ccc(S(=O)(=O)N2Cc3ccccc3CC2C(N)=O)cc1 (stereo unspecified),-1.6,0.5,2.5,-0.5,0.6%,-4.3

# Compound profiles, from the list above. Screens in order: Six1-Eya2 inh | D2 agonist | D2 potentiator | TRPML1 ag | PINK1 modulator | TRPML1 inh
# Shown for O=C(c1cccc(S(=O)(=O)Nc2ccc(F)cc2)c1)N1CCCC1 : -4.3 | -0.8 | -8.2 | -1.4 | -0.4% | -6.4
# Shown for CCN(CC)CCC(c1cc(OC)c(OC)c(OC)c1)c1c(OC)cc(OC)c2ccc(=O)oc12 (stereo unspecified) : -20.4 | -0.7 | -15.8 | -0.2&0.7 | -0.3% | 15.2&-5.6
# Shown for CCCNC(=O)Cn1c(=O)/c(=C/c2ccc(-c3cccc([N+](=O)[O-])c3)o2)s/c1=C\C(=O)C(C)(C)C : -1.9 | -0.8 | 10.0 | 0.5 | ? | -3.7
# Shown for Cc1ccc(S(=O)(=O)N2Cc3ccccc3CC2C(N)=O)cc1 (stereo unspecified) : -1.6 | 0.5 | 2.5 | -0.5 | 0.6% | -4.3
# Shown for COc1ccc([C@H]2C[C@@H](O)[C@H](n3cc(-c4ccc(F)cc4)nn3)CN2CC2CCCCC2)cc1 : 3.1 | -10.0 | -2.7 | 0.3 | 0.8% | 2.6
